# Screens deposited in PubChem by ICCB-Longwood Screening Facility, Harvard Medical School.
# GIV Gai3 FP – blocks GIV peptide binding to rat Galpha-i3; percent of control (FP), % (no concentration beside the values); Galpha-i3/FITC-GIV peptide fluorescence polarization, 90 min; hits give low values; scaled: aluminum fluoride 0%, vehicle 100%; 210,000 compounds, 0.42% hits; P08753;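 active = replicate mean at 85% of control or lower, very high polarization wells dropped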;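 note: wells of about 15 µL received 100 nL stock; the first replicate is given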
# Target sequence (P08753 whole entry, looked up): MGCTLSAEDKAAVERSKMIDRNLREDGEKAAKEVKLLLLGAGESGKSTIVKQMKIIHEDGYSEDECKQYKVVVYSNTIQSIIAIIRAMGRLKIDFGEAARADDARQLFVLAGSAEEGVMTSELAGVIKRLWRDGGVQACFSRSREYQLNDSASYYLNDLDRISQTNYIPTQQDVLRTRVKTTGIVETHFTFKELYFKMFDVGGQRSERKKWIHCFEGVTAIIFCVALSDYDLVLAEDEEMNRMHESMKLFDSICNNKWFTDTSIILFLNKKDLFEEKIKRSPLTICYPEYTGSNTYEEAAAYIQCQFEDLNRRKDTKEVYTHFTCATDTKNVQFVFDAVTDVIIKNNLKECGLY
# Sa growth 42C – inhibitors of Staphylococcus aureus growth at 42 °C; S. aureus RN4220 growth, OD600, 20 h; hits give low values; relative growth, % (test concentration not listed); 170,000 compounds, 0.53% hits; AID 720641;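 active = growth at 42 °C up to 50% and 20 or more points under that at 30 °C, or under 10% at both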;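 note: 300 nL library stock went into each well; scaled to the means of positive and negative controls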
# HCMV UL50-53 inh – cytomegalovirus nuclear egress complex inhibition. inhibition, % (test concentration not listed). AID 1918969. HTRF UL50-UL53 interaction, normalized percent inhibition. 190,000 compounds, 0.15% hits;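 active = both replicates at 50% or more, plus weaker picks with an unusually low signal ratio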;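 note: stock transfer was 100 nL into about 20 µL; 0% = negative control wells and 100% = wells with untagged competitor protein; inactives centre near -12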
# Sa growth 42C second temp – recorded beside Sa growth 42C, whose call it bears; relative growth, %; measured here: growth at 30 °C;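 optical density after 20 h as mean of two plates; 100% = untreated growth and lower means inhibition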
# * = called active by the depositor; nt = no result given.
Structure	Sa growth 42C	Sa growth 42C second temp	HCMV UL50-53 inh	GIV Gai3 FP
CCCn1c(=O)cc(N)n(-c2ccccc2C)c1=O	99	92	-26	101
CCC(CO)NS(=O)(=O)c1c(C)nc2sccn2c1=O (stereo not drawn)	105	99	6	98
COCCn1c(N)c(C(=O)NS(=O)(=O)c2ccc(C)cc2)c(=O)[nH]c1=O	100	92	-12	nt
CS(=O)(=O)Nc1cc(Cl)c(O)c(Br)c1	100	92	7	nt
Cc1cc(C(F)(F)F)c2c(C)nn(-c3ccccc3)c2n1	93	87	-25	nt
CCCCOC(=O)C1Cc2c([nH]c3ccccc23)C(C)N1 (stereo not drawn)	nt	nt	10	100
O=C(NCc1cccc(Cl)c1)c1ccc2nc(N3CCCCC3)sc2c1	100	95	-14	100
O=c1n(Cc2ccc(Cl)cc2)c2ccccc2c2nc(-c3ccccc3)nn12	89	92	-9	108
COc1ccc(Cn2c(=O)c3oc4ccccc4c3n(CC(=O)Nc3ccc(F)cc3F)c2=O)cc1	105	86	nt	110
O=C(CSc1cn[nH]n1)Nc1ccccc1	86	60	21	102
O=C1CCSC2(C(=O)N(Cc3ccc(F)cc3)c3ccccc32)N1c1ccc(Cl)cc1 (stereo not drawn)	98	94	nt	106
O=S(=O)(c1cccs1)N1CCC(C(c2ccccc2)c2ccccc2)CC1	94	95	15	102
COC(=O)c1ccccc1-n1cnnn1	99	86	-15	98
C(=C\c1ccco1)/C1=NN(Cc2ccccc2)CC1	105	71	-56	151
Cc1ccc2c(=O)cc(C(=O)Nc3ccccc3F)oc2c1	nt	nt	-13	110
O=c1[nH]c(=S)[nH]nc1-c1ccc(F)c(F)c1	85	66	-32	nt
Cc1[nH]c(C)c(S(=O)(=O)N2CCC(C(=O)N3CCC(C)CC3)CC2)c1C(=O)N1CCCCC1	nt	nt	-12	102
COc1ccc(-n2nc(C(=O)Nc3cccc(C)n3)c(=O)n(C)c2=O)cc1	nt	nt	-60	107
COc1cc(-c2nc(Cn3nnc(C(=O)Nc4ccccc4C)c3C)c(C)o2)cc(OC)c1OC	100	99	-7	105
Cc1ccc(-c2nc3nc(C)cc(N4CCOCC4)n3n2)cc1	nt	nt	-18	99
O=S(=O)(Cc1ccccc1)N1CCCN(c2nc3cc(Cl)ccc3n3cccc23)CC1	nt	nt	-30	105
O=C(CN1CC(c2ccccc2)CC1=O)OCc1cccc(Br)c1 (stereo not drawn)	122	86	-15	95
CN(C)S(=O)(=O)N(C)c1ccc(O)cc1	95	105	8	101
CCS(=O)(=O)N1CC(=O)N(c2ccc(Cl)cc2C)C(C)(C(=O)NC2CCCCC2)C1 (stereo not drawn)	116	90	nt	108
O=C1CC(C(=O)NCCc2ccccc2)C2(CCCCC2)O1 (stereo not drawn)	125	101	-16	102
COc1ccc(NC(=O)c2nn(C)c3c2CCc2sccc2-3)cc1Cl	nt	nt	-6	102
Nc1ncncc1-c1ccc(Cl)cc1	97	91	-18	100
OCCOCCN1CCN(Cc2ccc(Cl)cc2)CC1	102	104	-7	102
Cc1cc(CN2CCN(c3ccccc3F)CC2)cs1	84	89	nt	109
CN(C)c1ccc(CNC(=O)c2ccc3c(c2)N(C)C(=O)C2CCCCN32)cc1 (stereo not drawn)	106	100	nt	102
COc1ccc(-c2noc(N3CCC(C(=O)N4CCN(c5ccccn5)CC4)CC3)n2)cc1	117	90	3	102
CCS(=O)(=O)NCC(c1ccc(N(C)C)cc1)N(C)C (stereo not drawn)	nt	nt	-31	102
Cc1cc(=O)oc2cc(OC(=O)c3ccco3)ccc12	104	88	-7	94
CCN(Cc1ccccc1)S(=O)(=O)c1cc(C(=O)Nc2cc(Cl)cc(Cl)c2)ccc1F	99	82	nt	100
CCOC(=O)Nc1cccc2ccccc12	124	107	11	nt
CC1(C)C2CCC3(C)OC(=O)N(N1c1ccccc1)C23C (stereo not drawn)	120	86	-4	nt
COC(=O)NC(Nc1ccccc1)C(=O)c1ccccc1 (stereo not drawn)	90	77	-32	102
C=CCNCc1cc2cc(OCC)ccc2[nH]c1=O	99	104	-24	105
O=C(NCc1cc2ccccc2s1)C1CN(C(c2ccccc2)c2ccccc2)C1	96	91	22	98
O=C(O)CSc1nnc2c(n1)OC1(CCCCC1)Nc1ccccc1-2	82	76	-39	95
CCC1(CC)C(=O)c2cc3ccccc3cc2C1=O	96	87	-38	92
O=C(CN1C(=O)COc2ccc(S(=O)(=O)Nc3ccccc3)cc21)Nc1cccc(Cl)c1	86	78	nt	109
Cn1c(SCC(=O)N(c2ccccc2)C2CCCCC2)nc2cc(S(N)(=O)=O)ccc21	87	99	-12	nt
CCOc1ccccc1NC(=O)CCNS(=O)(=O)c1cccc2nonc12	89	90	-84	103
COc1ccc(S(=O)(=O)c2c(Nc3ccccc3F)sc(C(=O)c3cccc(OC)c3)c2N)cc1	122	108	nt	104
Cc1ccc2c(c1)C(N1CCCC1=O)CC(c1ccco1)N2 (stereo not drawn)	103	88	nt	101
CCOC(=O)c1cnn(CC2CCCCC2)c1N	114	78	-5	nt
CC1CCCC(C)N1C(=O)c1scc2c1OCCO2 (stereo not drawn)	99	84	-10	nt
Cc1nn(CCCC(=O)NC(C)C)c(=O)c2cc3sccc3n12	100	90	nt	104
CCCCOC(=O)c1ccc(NC(=O)CSc2nc3ccccc3n2C)cc1	nt	nt	-21	106

# 6 entries from above, with values under each structure.
# Below each SMILES: Sa growth 42C, Sa growth 42C second temp, HCMV UL50-53 inh, GIV Gai3 FP
> Cc1cc(=O)oc2cc(OC(=O)c3ccco3)ccc12
    104, 88, -7, 94
> CCN(Cc1ccccc1)S(=O)(=O)c1cc(C(=O)Nc2cc(Cl)cc(Cl)c2)ccc1F
    99, 82, nt, 100
> CCOC(=O)Nc1cccc2ccccc12
    124, 107, 11, nt
> CC1(C)C2CCC3(C)OC(=O)N(N1c1ccccc1)C23C (stereo not drawn)
    120, 86, -4, nt
> COC(=O)NC(Nc1ccccc1)C(=O)c1ccccc1 (stereo not drawn)
    90, 77, -32, 102
> C=CCNCc1cc2cc(OCC)ccc2[nH]c1=O
    99, 104, -24, 105

# (more compounds)
Structure	Sa growth 42C	Sa growth 42C second temp	HCMV UL50-53 inh	GIV Gai3 FP
O=S(=O)(Nc1ccc2c(c1)CCC2)c1cccs1	108	104	-19	102
Cn1c(N)c(C(=O)COc2ccccc2Cl)c(=O)n(C)c1=O	120	85	-18	nt
CCC1CC(C(F)(F)F)n2ncc(C(=O)O)c2N1 (stereo not drawn)	92	94	-5	104
Nc1ccc(-c2nn[nH]n2)cc1F	105	71	-62	nt
N#Cc1c(F)cccc1NCCO	120	84	-2	96
COc1cc2nc(NCc3ccccc3)n3nc(-c4cccnc4)nc3c2cc1OC	92	88	1	102
CCc1nn2c(=O)cc(CSc3nc(-c4ccccc4)nc4cc(=O)[nH]n34)nc2s1	nt	nt	0	100
CN(C)CCCN(C(=O)c1cccs1)c1nc2ccc(F)cc2s1	95	101	nt	109
CCN(CC)C(=O)CN1Cc2ccccc2C1=O	105	93	-25	103
COc1ccc(-c2noc(CCCN3C(=O)c4ccccc4C3=O)n2)cc1	96	85	-16	105
Cc1ccc(CN2C(=O)C3CCCCC3C2=O)cc1S(=O)(=O)Nc1cccc(C)c1C (stereo not drawn)	nt	nt	1	98
Cc1ccc(-c2noc(CNC(C)C)n2)cc1	107	75	-4	103
CCn1c(Cn2cccn2)nc2cc(NC(=O)C(C)C)ccc21	nt	nt	13	102
COCCCN1CCc2nc(SCC(=O)Nc3cccc(C(F)(F)F)c3)[nH]c(=O)c2C1	87	78	-25	98
Cc1ccc(-n2ncc(C(=O)NCc3ccco3)c2C2CCN(C(=O)OC(C)(C)C)CC2)cc1	107	87	nt	107
O=C(O)CCc1nnc(-c2ccccc2)o1	91	103	-1	nt
Cc1c(C(=O)OC2CCC(C)CC2)[nH]c2c1C(=O)CC(c1ccc(N(C)C)cc1)C2 (stereo not drawn)	101	97	1	104
NNC(=O)C1CCCN1S(=O)(=O)c1ccc(Cl)cc1 (stereo not drawn)	120	91	-5	nt
OC(CN1CCCC1)Cn1ccc(C(F)(F)F)n1 (stereo not drawn)	108	90	-22	98
CN(C)C(CNC(=O)Cc1c[nH]c2ccccc12)c1ccco1 (stereo not drawn)	96	97	-4	nt
COc1ccc(N2CCN(CC(O)COc3ccccc3C(C)(C)C)CC2)cc1 (stereo not drawn)	79	47	-39	103
CNC(=S)C12CC3CC(CC(C3)C1)C2	103	90	6	104
COc1ccc(C(=O)OCC(=O)c2ccccc2)cc1	102	89	-3	103
O=C(NCc1ccccc1)c1cc2c(s1)-c1ccccc1SC2	116	81	nt	102
C=CCNC(=O)c1cc2c(C)nn(-c3ccc(F)cc3)c2s1	103	94	-6	nt

# Compounds shown so far containing a tert-butyl group, in the order listed:
Structure	Sa growth 42C	Sa growth 42C second temp	HCMV UL50-53 inh	GIV Gai3 FP
Cc1ccc(-n2ncc(C(=O)NCc3ccco3)c2C2CCN(C(=O)OC(C)(C)C)CC2)cc1	107	87	nt	107
COc1ccc(N2CCN(CC(O)COc3ccccc3C(C)(C)C)CC2)cc1 (stereo not drawn)	79	47	-39	103

# Next part
Structure	Sa growth 42C	Sa growth 42C second temp	HCMV UL50-53 inh	GIV Gai3 FP
CCc1ccc(C(=O)N2CCC(c3nc(-c4ccc(S(=O)(=O)N5CCCC5)cc4)no3)CC2)cc1	93	86	-33	100
Cc1[nH]c(C)c(S(=O)(=O)N2CCC(C(=O)N3CCN(C4CCCCC4)CC3)CC2)c1C(=O)N1CCCCC1	nt	nt	-30	105
CC(C)(C)c1nc(SCc2nc(-c3cccc(-n4cccc4)c3)no2)n[nH]1	103	90	-16	105
CC1(C)SC(c2ccc(Cl)cc2Cl)NC1C(=O)O (stereo not drawn)	100	85	-13	97
CCc1ccc(-c2noc(Cn3cnc4c(nnn4-c4ccccc4OC)c3=O)n2)cc1	nt	nt	-22	101
COc1ccc(CN2C(=O)C3CCCC3=Nc3cc(C)c(C)cc32)cc1F (stereo not drawn)	nt	nt	-19	107
O=C1CCN(CC(=O)Nc2ccc(-c3ccccc3)cc2)CC1	114	90	-16	nt
C=CC#CC(C)(C)c1ccc(O)c(C)c1	85	108	2	98
CN(Cc1ccccc1)C(=O)c1cc2c(=O)oc3ccccc3c2s1	114	86	-2	97
OC1CCCc2c(OCc3coc(-c4cccs4)n3)cccc21 (stereo not drawn)	97	84	-8	nt
Cc1cnc(NC(=O)c2cccc(OC(F)F)c2)s1	112	105	14	nt
Cc1ccc(C(=O)N2CCC(C(N)=O)CC2)cc1NC(=O)c1nsc2ccccc12	104	85	nt	106
C#CCSc1nc(C)cc(C(=O)OCC)c1C#N	94	80	-42	103
Cc1ccc2oc(-c3ccc(Cl)cc3)nc2c1	98	101	-10	96
Cc1ccc(-c2nnc(NC(=O)c3cc4c([nH]c5ccccc54)c(C)n3)s2)cc1	114	81	nt	104

# Sorted by heavy-atom count (low to high): some entries from above.
Structure	Sa growth 42C	Sa growth 42C second temp	HCMV UL50-53 inh	GIV Gai3 FP
C=CC#CC(C)(C)c1ccc(O)c(C)c1	85	108	2	98
Cc1ccc2oc(-c3ccc(Cl)cc3)nc2c1	98	101	-10	96
C#CCSc1nc(C)cc(C(=O)OCC)c1C#N	94	80	-42	103
Cc1cnc(NC(=O)c2cccc(OC(F)F)c2)s1	112	105	14	nt
O=C1CCN(CC(=O)Nc2ccc(-c3ccccc3)cc2)CC1	114	90	-16	nt
CN(Cc1ccccc1)C(=O)c1cc2c(=O)oc3ccccc3c2s1	114	86	-2	97
